# Source: PubChem BioAssay
# Mtb bLac sens: beta-lactam sensitization of Mtb H37Rv, H37Rv; M. tuberculosis H37Rv growth with meropenem, percent inhibition; hits of this screen are not shown here; inhibition, % at 25 µM; 330,000 tested, 0.27% active; AID 434955, 2010;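 active means about 74% or more and at least 40 points above the plate without the antibiotic, then above 30% in a dose series; inconclusive means first-round hits that could not be retested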;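 further: growth measured after seven days incubation then overnight dye step; 0% = bacteria only wells and 100% = bacteria with antibiotic; twin plates without the antibiotic show which effects depend on it; some results filed as inactive read as strong as hits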
# Mtb H37Rv: M. tuberculosis H37Rv growth inhibitors, H37Rv strain (AID 1626) | M. tuberculosis H37Rv growth inhibition; higher % means a stronger effect | inhibition, % at 10 µM; hits with a dose series show IC50 in µM | 220,000 tested, 0.95% active;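 active means confirmed in a dose series; inconclusive means inhibition above 80% but not taken into the dose series; inactive means below 80% or under 30% at every dose of the series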;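 further: bacteria incubated seven days before Alamar blue readout; 0% = bacteria only wells and 100% = bacteria with antibiotic wells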
# RecA splice inh: Mtb RecA intein splicing inhibitors, primary screen, biochemical, fluorescence, HTS; Protein RecA (Mycobacterium tuberculosis (strain ATCC 25618 / H37Rv)), P9WHJ3; cell-free RecA intein splicing; inhibition, %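 (about 9 µM by stock and volumes)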; 290,000 tested, 0.75% active; in the data active means inhibition above about 30%; inconclusive means no clear call, values can overlap the other calls;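 further: 0% = vehicle wells and 100% = reference inhibitor control wells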
# Target sequence (P9WHJ3 whole entry, looked up, canonical isoform): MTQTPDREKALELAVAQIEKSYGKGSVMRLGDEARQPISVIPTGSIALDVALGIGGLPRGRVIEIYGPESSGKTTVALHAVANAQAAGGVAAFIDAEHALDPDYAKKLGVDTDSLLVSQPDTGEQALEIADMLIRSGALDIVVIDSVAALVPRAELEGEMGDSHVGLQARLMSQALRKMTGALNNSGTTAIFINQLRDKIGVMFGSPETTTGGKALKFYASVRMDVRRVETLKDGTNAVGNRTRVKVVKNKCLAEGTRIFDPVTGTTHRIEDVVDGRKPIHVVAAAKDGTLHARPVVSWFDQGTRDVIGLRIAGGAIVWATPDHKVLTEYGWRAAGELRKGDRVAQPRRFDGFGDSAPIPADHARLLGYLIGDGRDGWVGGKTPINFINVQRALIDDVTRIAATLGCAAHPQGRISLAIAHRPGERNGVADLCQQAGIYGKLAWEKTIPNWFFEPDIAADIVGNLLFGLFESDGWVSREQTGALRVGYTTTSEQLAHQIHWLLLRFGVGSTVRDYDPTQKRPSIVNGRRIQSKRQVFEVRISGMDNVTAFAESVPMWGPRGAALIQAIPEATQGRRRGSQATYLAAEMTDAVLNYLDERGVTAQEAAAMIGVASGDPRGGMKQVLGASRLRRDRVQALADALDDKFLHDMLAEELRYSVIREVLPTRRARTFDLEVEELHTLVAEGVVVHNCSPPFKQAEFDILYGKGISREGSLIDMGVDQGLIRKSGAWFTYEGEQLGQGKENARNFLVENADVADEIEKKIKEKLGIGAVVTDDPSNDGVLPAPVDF
# Arbovirus inh: antivirals against arbovirus infection, primary screen, cell-based, full library, 10K replicate subset | arbovirus infection cell-based antiviral screen | AID 1251, 2008 | 200,000 tested, 0.37% active | inhibition, % at 10 µM;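 active means inhibition from about 30%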;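 further: bluetongue infection of BSR cells; cell survival read as ATP light after 72 h; 0% = infected wells without compound and 100% = uninfected wells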
# YopH PTP inh: YopH tyrosine phosphatase inhibitors, primary screen, biochemical, fluorescence Ex485/Em525. YopH tyrosine phosphatase [Yersinia enterocolitica]. inhibition, %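 (about 10 µM by stock and volumes)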. 140,000 tested, 0.16% active. AID 898, 2007;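 active means inhibition of 50% or more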;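 further: controls were vehicle for no effect and minimum signal wells for full effect; inactives centre near -20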
# Arbovirus inh repeat: recorded beside Arbovirus inh, whose call it bears; inhibition, %; measured here: 10K subset replicate screen; many hits read low in the repeat;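 first of two repeat runs on a subset; 0% = infected and 100% = uninfected wells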
# Starred values were filed as active, the others as inactive; ? = inconclusive; · = no result given. Only part of the results is shown; the hit share may differ from the screen's.
SMILES,Mtb bLac sens,Mtb H37Rv,RecA splice inh,Arbovirus inh,YopH PTP inh,others
CC1(C)S[C@@H]2[C@H](N=CN3CCCCCC3)C(=O)N2[C@H]1C(=O)O,-3,-9%,-0.1,·,·,
CCN(CC)S(=O)(=O)c1ccc(N2CCN(C)CC2)c(NC(=O)COc2ccc(F)cc2Cl)c1,25,·,-0.2,·,·,
COc1ccc(N(C(C)C(=O)Nc2ccc(S(=O)(=O)N3CCOCC3)cc2)S(C)(=O)=O)cc1 (centres undefined),1,-5%,-0.7,8,·,
CC(=O)Nc1ccc(S(=O)(=O)Nc2cccc(C(=O)NC(C)(C)C)c2)cc1,-4,0%,1.6,-4,-14,Arbovirus inh repeat=4
CC1=C(C(=O)NC2CCCc3c2cnn3-c2cccc(C)c2C)OCCO1 (centres undefined),-15,·,1.9,·,·,
COc1ccccc1N1CCN(C(=O)c2ccccc2NC(=O)C2CCCCC2C(=O)O)CC1 (centres undefined),-5,6%,0.0,7,-27,
O=C(NCc1ccccc1)c1cc2ccccc2oc1=O,6,·,0.5,·,·,
CCCCOc1ccc(C(=S)N2CCC(C(N)=O)CC2)cc1,-4,6%,-1.1,10,·,
COC(=O)c1cccc(Cn2nnc3ccccc3c2=O)c1,-7,0%,1.1,1,-5,
O=C(N1CCCCCC1)N1CCN(S(=O)(=O)N2CCCCC2)CC1,-12,-1%,-1.6,-3,-13,
CN(CC(=O)Nc1c(Cl)cccc1Cl)C(=O)c1ccncc1,-5,·,0.3,·,·,
O=C(Nc1ccc(Br)cc1)c1cccc(N2C(=O)C3CCCCC3C2=O)c1 (centres undefined),-14,·,-0.3,·,·,
CCOC(=O)C1=C(N)Oc2cc(C)n(CCc3ccc(OC)c(OC)c3)c(=O)c2C1c1cccnc1 (centres undefined),-7,-2%,2.4,-2,-50,
Cc1ccc(-c2noc(CCC(=O)NC3CC3)n2)cc1,1,·,1.3,·,·,
CCCCOC(=O)/C=C\C(=O)OCCCC,-3,-7%,-0.6,·,·,
CCOC(=O)N1CCC(NC(=O)c2cc3c(-c4ccc(Cl)cc4)nn(C)c3s2)CC1,-1,-9%,·,-8,-11,Arbovirus inh repeat=-10
CCOC(=O)C1=CC(=C2C(=O)N(CC)C(=S)N(CC)C2=O)c2ccccc2O1,-6,-10%,12,13,·,
COc1ccc(CCNC(=O)CSc2n[nH]c(N)n2)cc1,1,·,1.1,·,·,
CCN(CC)C(=O)CSc1nc2ccccc2c(=O)n1CC1CCCCC1,-7,8%,7.3,-19,-26,
CCOc1ccc(C(=O)N2CCCC(c3nc(-c4cccs4)no3)C2)cc1 (centres undefined),-12,5%,4.7,·,·,
CCOc1ccc(C(=O)Nc2cc(C)ccn2)cc1,-2,0%,·,-15,·,
Cc1cc(C)c(NC(=O)COC(=O)C2CCN(c3ccc(C(F)(F)F)cn3)CC2)c(Cl)c1,1,·,0.6,·,·,
CC(C)OC(=O)NC(C)(C)COC(=O)Nc1cccc(Cl)c1,-2,-2%,0.9,4,-31,
C#CCOCCOCCOCCNc1nc(N2CCN(C(=O)[C@H](Cc3cc4ccccc4[nH]3)n3cc([C@@H](N)C(C)CC)nn3)CC2)nc(N2CCN(C(=O)[C@H](Cc3cc4ccccc4[nH]3)n3cc([C@@H](N)Cc4ccc(O)cc4)nn3)CC2)n1 (some centres undefined),97,·,8.2,-9,·,
O=C(CN1C(=O)/C(=C\c2ccccc2Cl)Oc2ccccc21)NCc1cccnc1,2,1%,-100,4,·,
CC(C)n1c(N)c(C#N)c2ccc([N+](=O)[O-])cc2c1=O,-5,-9%,-12,·,·,
CCCCCn1nc(C(=O)OCc2nnc(-c3ccccc3)o2)c2ccccc2c1=O,9,·,-1.1,·,·,
Clc1ccc(CSc2nnc(CN3CCOCC3)n2-c2ccccc2)cc1Cl,6,-14%,-0.1,-1,-4,
COc1ccc(/C=N/NC(=O)c2cc[n+]([O-])cc2)cc1OC,-6,·,-1.3,·,·,
COc1cccc(CN(C)C(=O)CCNC(=O)c2ccc(Br)cc2)c1,-7,·,-0.9,·,·,
Cc1cc2oc(C(=O)Nc3nonc3C)c(C)c2cc1C,5,·,-2.9,·,·,
COC(=O)C[C@H]1c2cc(C(F)(F)F)ccc2S(=O)(=O)N1C1CCCC1,9,-3%,-3.4,·,·,
CCOc1cc(S(=O)(=O)NC2CC(C)(C)NC(C)(C)C2)ccc1F,-18,-5%,-1.0,-4,-24,
Cc1cc(OCC(=O)NCC(O)c2ccccc2)c2c3c(c(=O)oc2c1)CCC3 (centres undefined),3,·,1.8,·,·,
COc1ccc(CCNC(=O)COC(=O)c2ccc(N3CCCC3=O)cc2)cc1OC,-2,2%,0.3,5,·,
CN1CCN(C(=O)c2ccccc2-c2nc(-c3ccc(Cl)cc3)no2)CC1,-5,0%,0.1,-2,-23,
CCOC(=O)CCCCCN(Cc1ccccc1)S(=O)(=O)c1ccc([N+](=O)[O-])cc1,3,4%,6.7,0,-15,
CC1(C)CC(=O)CC(C)(C)N1OC(=O)c1ccncc1,-5,5%,0.9,0,-14,
COc1ccccc1CNC(=O)c1cccc(N(C)C)c1,-4,-2%,-2.5,-5,-40,
O=C(NCC1CCCO1)c1ccccc1-c1nc(-c2ccccc2)no1 (centres undefined),-1,-1%,-0.5,-3,-16,
Cc1cc(C(c2nnnn2Cc2ccccc2)N2CCOCC2)c(C)n1-c1ccc2c(c1)OCO2 (centres undefined),-1,34%,2.5,-10,-12,
Cc1ccc(C(=O)C[n+]2cc(Br)cc(Br)c2)cc1[N+](=O)[O-],5,-12%,1.3,-10,-21,
Cc1cc(/C=C2\C(=O)NC(=O)N(c3ccc(Cl)cc3)C2=O)c(C)n1-c1sc2c(c1C#N)CCCC2,8,-10%,2.4,17,-23,
Cn1ncc(C#N)c1/N=C/N1CCOCC1,-2,-3%,·,-4,34,
CCN(CC)CCN1C(=O)C(=O)/C(=C(/O)c2cnn(-c3ccccc3)c2C)C1c1ccc(C)o1 (centres undefined),-5,5%,-1.3,0,-53,
CCOC(=O)N1CCN(C(=O)CSc2nnc(COc3ccc(Cl)cc3)o2)CC1,100,?,0.9,11,19,
O=C(CNC(c1ccccc1)c1ccccc1)Nc1cc([N+](=O)[O-])ccc1Cl,0,7%,2.2,3,-41,
N=c1oc2ccc3ccccc3c2cc1-c1nc(-c2ccccc2)cs1,8,-6%,-8.8,10,-23,
CC(C)(C)NC(=O)C(=O)N/N=C/c1ccc(F)cc1,-4,-5%,0.4,-3,·,
O=C(c1ccc(Cl)cc1)N1CCCC(c2ccccc2)=N1,5,9%,9.0,5,-34,
COc1ccc2c(c1OC)C(=O)OC2n1c(O)c(N=NC(C)=O)c2ccccc21 (centres undefined),0,-5%,0.0,·,·,
COc1ccc(C(CNC(=O)c2ccc(S(=O)(=O)N3CCCC3)cc2)N(C)C)cc1OC (centres undefined),-3,-1%,-1.1,16,·,
Cc1cccc(OCC(=O)N/N=C/C=C/c2ccco2)c1,-7,-2%,1.7,-11,-2,
CC(CN1CCOCC1)OC(=O)/C=C/c1ccccc1 (centres undefined),-9,-1%,-2.1,2,·,
Cc1ccc(S(=O)(=O)c2nc(S(C)(=O)=O)sc2N2CCC(C)CC2)cc1,52,·,-1.7,·,·,
CCOC(=O)c1ccccc1NC(=O)COc1ccccc1,84,9%,1.1,-2,-33,
CC1(C)Cc2nc3oc4c(N(CCO)Cc5ccccc5)ncnc4c3cc2CO1,0,2%,-1.5,-2,-17,
COc1ccc(OC)c(C(=O)Cn2c3[n+](c4ccc(C(F)(F)F)cc42)CCCCC3)c1,-10,-1%,2.2,0,·,
COc1ccc(C(=O)Nc2cc(C)nn2-c2ccc(C)cc2)cc1,0,·,3.9,·,·,
COCCCN1C(=O)c2ccc(C(=O)OCC(=O)N(CCC#N)c3cc(C)cc(C)c3)cc2C1=O,-4,·,0.0,·,·,
# The results go on:
SMILES,Mtb bLac sens,Mtb H37Rv,RecA splice inh,Arbovirus inh,YopH PTP inh,others
CC1=NN(C(=O)Cc2ccc([N+](=O)[O-])cc2)C(O)(c2ccccc2)C1 (centres undefined),7,-5%,0.0,-9,-2,
COc1ccc(N2C(=O)N(Cc3cccc(F)c3)c3ccccc3S2(=O)=O)cc1,·,5%,·,-11,·,
O=C(CCCCCC(=O)N(CCO)CCO)N(CCO)CCO,-3,-13%,1.1,-5,-22,
CCOc1ccc(-n2c(=O)c3c4c(sc3n(CC(=O)NCC3CCCO3)c2=O)CCCC4)cc1 (centres undefined),-1,0%,-0.2,9,·,
COC(=O)c1sc2ncccc2c1OCc1ccc(Cl)cc1Cl,1,-1%,0.4,3,-8,
O=C1c2ccccc2-c2cccc(C(=O)N3CCN(C(=O)c4ccccc4)CC3)c21,1,1%,-2.5,5,·,
CC(C)CN(C(=O)COC(=O)c1c(Cl)ccc(Cl)c1Cl)C1CCS(=O)(=O)C1 (centres undefined),1,-1%,·,-10,·,
O=c1c[n+]([O-])c2ccccc2n1OCc1ccccn1,-11,-11%,-25,5,0,
COc1ccc(NC(=O)c2ccc3c(c2)C(=O)N(Cc2cccnc2)C3=O)cc1,4,-13%,-1.8,2,-26,
O=S1(=O)N=C(c2ccccc2)c2ccccc21,-5,·,-0.6,·,·,
O=c1c2ccccc2nc(/C=C/c2ccc(O)c(O)c2)n1-c1ccccc1,4,·,-3.8,·,·,
O=[N+]([O-])c1ccc2n[nH]nc2c1,-14,3%,-0.6,6,-10,
CCCCC1(c2ccc(F)cc2)NC(=O)N(CC(=O)N2CCN(C(=O)c3ccco3)CC2)C1=O (centres undefined),?,·,-0.1,·,·,
OCC1(CCc2ccccc2)CCN(Cc2ccccc2Cl)CC1,5,5%,0.6,-3,·,
O=[N+]([O-])c1cccc(/C=C/c2nc[nH]c2[N+](=O)[O-])c1,-5,-10%,-1.9,·,·,
CN1C(=O)C(=Cc2ccc(OCCN(C)c3ccccn3)cc2)C(=O)N(C)C1=O,80,2%,-8.0,9,·,
CSc1ccc(CN(C)CC(=O)Nc2ccc(NC(C)=O)cc2)cc1,-2,-11%,-0.8,-1,·,
O=C(CN1CCN(C(=O)c2ccco2)CC1)N1CCc2[nH]c3ccccc3c2C1,1,7%,-92,·,·,
CC(C)=CCC/C(C)=C/CCC(C)NCCN1CCNCC1 (centres undefined),5,-1%,7.0,-30,-23,
CC1(C)NCCN2C(=O)CSC21 (centres undefined),-2,5%,-2.5,-2,3,

# Structural class, the entries above containing a COOH group
SMILES,Mtb bLac sens,Mtb H37Rv,RecA splice inh,Arbovirus inh,YopH PTP inh,others
CC1(C)S[C@@H]2[C@H](N=CN3CCCCCC3)C(=O)N2[C@H]1C(=O)O,-3,-9%,-0.1,·,·,
COc1ccccc1N1CCN(C(=O)c2ccccc2NC(=O)C2CCCCC2C(=O)O)CC1 (centres undefined),-5,6%,0.0,7,-27,

# Reprinted at random: four records from the list
SMILES,Mtb bLac sens,Mtb H37Rv,RecA splice inh,Arbovirus inh,YopH PTP inh,others
Cc1cc2oc(C(=O)Nc3nonc3C)c(C)c2cc1C,5,·,-2.9,·,·,
COc1ccc(C(CNC(=O)c2ccc(S(=O)(=O)N3CCCC3)cc2)N(C)C)cc1OC (centres undefined),-3,-1%,-1.1,16,·,
CSc1ccc(CN(C)CC(=O)Nc2ccc(NC(C)=O)cc2)cc1,-2,-11%,-0.8,-1,·,
CC(C)(C)NC(=O)C(=O)N/N=C/c1ccc(F)cc1,-4,-5%,0.4,-3,·,

# Further results follow.
SMILES,Mtb bLac sens,Mtb H37Rv,RecA splice inh,Arbovirus inh,YopH PTP inh,others
COc1ccccc1CNC(=O)COC(=O)CSc1ccc(F)cc1,2,·,-1.0,·,·,
Cc1ccc(NC(=O)C2=CCN(S(=O)(=O)c3ccc(F)cc3)CC2)cc1,2,·,·,-4,-28,
CCc1nnc(NS(=O)(=O)c2ccc(NC(=O)c3ccccc3C)cc2)s1,-3,1%,-0.3,-1,·,
CCCC[C@H]1COCCS(=O)(=O)N1Cc1ccc(C)cc1,-2,·,6.5,·,·,
CC1=NN(c2ccccc2)C(=O)/C1=C/c1ccc[nH]1,2,-9%,-0.8,-7,-23,
Cc1ccc(-c2cn(-c3ccc(SC(F)F)cc3)c3[n+]2CCC3)cc1,-7,2%,1.1,-1,-17,
CC1CCCC(C)N1C(=O)COC(=O)Cc1ccc(Cl)cc1 (centres undefined),12,·,-2.6,·,·,
Cc1ccccc1CSc1ccc2nnc(-c3ccccn3)n2n1,9,3%,0.1,5,·,
COc1ccc(CCNc2ccc(C(CC(N)=O)NC(=O)c3cc(OC)ccc3OC)cc2[N+](=O)[O-])cc1 (centres undefined),21,·,1.7,·,·,
COc1ccccc1N(CC(O)CN1CCC(C)CC1)S(=O)(=O)c1ccccc1 (centres undefined),0,·,2.3,·,·,
